# Rango-impB inh = prevents formation of the Rango-importin beta complex | Q14974 | Rango CFP/YFP FRET sensor + importin beta, 45 min | Potency, µM (highest dose often 92.2 µM), inactives show at the highest dose inhibition of complex formation | hit rate 0.031% among 340,000 | AID 540263; active = rising FRET ratio curve, often small or poorly fitted; inconclusive = mostly compound fluorescence or quenching in the first reads; inactive = flat curves in all reads;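 further: potency means the concentration at half of the fitted maximal effect; 0% = DMSO wells and 100% = buffer wells lacking importin beta; nearly all actives have a fitted effect of over 15% in size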
# Target sequence (Q14974 whole entry, looked up): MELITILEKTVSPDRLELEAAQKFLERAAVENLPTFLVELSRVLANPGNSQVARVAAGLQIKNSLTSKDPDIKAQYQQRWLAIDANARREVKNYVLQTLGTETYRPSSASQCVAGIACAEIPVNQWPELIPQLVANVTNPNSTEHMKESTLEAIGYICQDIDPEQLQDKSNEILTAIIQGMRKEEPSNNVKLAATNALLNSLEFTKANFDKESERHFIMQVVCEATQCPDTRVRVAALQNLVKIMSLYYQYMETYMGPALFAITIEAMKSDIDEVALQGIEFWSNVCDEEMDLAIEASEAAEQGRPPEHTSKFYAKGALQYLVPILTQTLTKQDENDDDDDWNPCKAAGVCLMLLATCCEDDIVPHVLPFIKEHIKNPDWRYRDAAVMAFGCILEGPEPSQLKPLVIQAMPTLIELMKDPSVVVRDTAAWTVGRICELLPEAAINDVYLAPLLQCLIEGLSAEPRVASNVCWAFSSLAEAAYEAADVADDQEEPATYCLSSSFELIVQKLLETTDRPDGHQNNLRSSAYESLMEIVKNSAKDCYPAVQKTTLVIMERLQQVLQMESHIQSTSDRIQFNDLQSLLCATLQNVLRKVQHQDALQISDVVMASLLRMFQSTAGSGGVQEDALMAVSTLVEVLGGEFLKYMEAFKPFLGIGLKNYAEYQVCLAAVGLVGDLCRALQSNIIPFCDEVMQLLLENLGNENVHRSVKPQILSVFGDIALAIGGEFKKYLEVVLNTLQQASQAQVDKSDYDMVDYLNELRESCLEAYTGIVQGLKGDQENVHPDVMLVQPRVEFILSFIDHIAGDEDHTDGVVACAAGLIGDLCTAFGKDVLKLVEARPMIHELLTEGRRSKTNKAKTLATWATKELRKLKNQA
#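 FRET biosensor Rango (snurportin 1 IBB between N-terminal EYFP and C-terminal Cerulean), 50 nM in PBS/1 mM DTT/0.02% Tween-20/0.1% BSA, preincubated 5 min RT with compound; 0.125 microM importin beta added, 45 min RT, CFP/YFP FRET ratio read.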
# Rango release inh = inhibition of RanGTP-driven Rango-importin beta dissociation; Biochemical FRET Rango-importin beta, RanGTP-induced dissociation; Potency, µM (titrated, usually from 46.1 µM), inactives show at the top dose activity change, negative = inhibition; hit rate 0.071% among 340,000; active means falling FRET ratio curve, often poorly fitted, with flat reads before Ran was added; inconclusive means other falling curves, or compound fluorescence or quenching; inactive means flat or rising ratio curve;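 further: potency means the concentration at half of the fitted maximal effect; % of control where 0% means no effect; nearly all actives have a fitted effect of over 45% in size; -100% = wells without RanGTP and RCC1; the record marks most hits as doubtful in a second field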
#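 FRET read at 45 min, room temperature: inhibitors block the CFP/YFP signal rise when RanGTP (0.6 uM Ran, 2 mM GTP, 0.2 uM RCC1) frees Rango (0.1 uM) from importin beta (0.25 uM). Pre-read after 5 min compound exposure flags interference.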
# miR-21 reporter = miR-21 reporter, rising signal | HeLa miR-21 FLuc reporter, luciferase, 48 h | Potency, µM (doses to about 38.3 µM), for the others: at the top dose reporter change, positive = more light | 340,000 tested, under 10 active; active = well fitted rising curve with a large enough effect; inconclusive = small, poorly fitted or top-dose-only effect; inactive = no such curve, though single readings can be large or run the other way;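 further: % of control where 0% means no effect; miR-21 action dims this reporter so a rising signal means less miR-21 action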
#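 Luminescence from a firefly luciferase reporter carrying a miR-21 binding site downstream, stably expressed under a CMV promoter in HeLa cells that make miR-21 endogenously, reports miRNA modulation after 48 h compound exposure up to approximately 40uM final.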
# GLA inh pH 4.5 = inhibitors of human alpha-galactosidase A at pH 4.5; P06280; purified enzyme, 4-MU-alpha-Gal fluorescence, pH 4.5; 230,000 tested, under 10 active; activity change, negative = inhibition, % at 105 µM; AID 1467; inconclusive = small, poorly fitted or top-dose-only inhibition, or a rising curve; inactive = flat fitted curve, though single readings scatter; no compound was filed as active;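 further: 0% = full activity with enzyme and -100% = basal without enzyme; dose as in the result columns while the protocol names 77 µM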
# * = called active by the depositor; ? = inconclusive; / = no result given; & = joins results of further samples; [ ] = remark or other dose. Only part of the results is shown (hit frequency here may not be typical).
no.	SMILES	Rango-impB inh	Rango release inh	miR-21 reporter	GLA inh pH 4.5
1	Cc1ccc(CN2CC(C(=O)Nc3ccc(C)cn3)CC2=O)cc1 (centres undefined)	0.9%	10%	/	/
2	O=C(c1cnn2c1NC(c1ccc(Br)cc1)CC2C(F)(F)F)N1CCN2CCCC2C1 (centres undefined)	-0.5%	2%	-14%	6
3	O=C(CSc1ccccn1)NCc1ccc2c(c1)OCO2	-1.6%	-6%	-20%	1
4	O=C(/C=C/c1ccc([N+](=O)[O-])cc1)OCC(=O)c1ccc[nH]1	-0.3%	-6%	/	/
5	COc1ccccc1CNC(=O)C1CCN(c2ncnc3c2nc2n3CCCCC2)CC1	-0.9%	0%	-4%&-9%	/
6	CCCCC(=O)Nc1cc(C)c(NC(=O)c2cccs2)cn1	7.5%	-6%	-1%	1
7	O=C(Nc1ccc(COc2ccccc2)cc1)Oc1ccccc1N1CCOCC1	-2.9%	0%	-16%	-3
8	CCn1c(SCc2ccc(C(=O)Nc3nccs3)cc2)nnc1-c1ccc(N)cc1	-3.7%	2%	4%	2
9	COc1ccc(NC2CCCN(C(=O)CCc3cn[nH]c3)C2)cc1 (centres undefined)	-2.5%	8%	-1%	/
10	O=S(=O)(Nc1ccc(-c2ccc(N3CCOCC3)nn2)cc1)c1cc(Cl)ccc1Cl	-1.3%	5%	/	/
11	CCOC(=O)C1=C(C)N=c2s/c(=C/c3ccc(OCC(=O)O)cc3)c(=O)n2C1c1cc(OC)c(OC)c(OC)c1 (centres undefined)	?	?	-6%	/
12	CN(C)S(=O)(=O)c1ccc(NC(=O)COC(=O)C2COc3ccccc3O2)cc1 (centres undefined)	0.6%	-11%	4%	-2
13	CCN(C(=O)COC(=O)/C=C/c1cnc2ccccc2n1)C1CCS(=O)(=O)C1 (centres undefined)	-0.6%	0%	3%	-1
14	CCOC(=O)c1c(C)[nH]c(C)c1C(=O)CSc1nc2ccccc2c(=O)n1-c1ccccc1C	-0.3%	0%	-7%	-13
15	O=C(Nc1nn(Cc2ccccc2F)cc1Br)c1cccs1	-1.3%	1%	-16%	-1
16	CCOC(=O)N1CCN(C(=O)c2cccc(NC(=O)c3ccco3)c2)CC1	0.0%	8%	-3%	3
17	CCCCCCCCCCOC(=O)Cn1c(COc2ccc(OC)cc2)[n+](C)c2ccccc21	4.2%&7.1%	36%&0%	?	/
18	Cc1ccc(NC(=O)CN(C)C(=O)CSc2nc(C)cs2)cc1	3.6%	7%	0%	-10[21.1 µM]
19	COc1ccc2nc(Cl)c(C#N)cc2c1	-0.1%	-16%	-4%	-18
20	Cc1ccc(-c2cc(C(=O)N/N=C/c3ccoc3)c3ccccc3n2)cc1	-3.0%	17%	-2%	/
21	Cc1cc(C)nc(NCCC(=O)O)n1	?	-30%	-3%	-7
22	CC(C)(C)C(=O)COC(=O)c1ccc(N)c([N+](=O)[O-])c1	-0.6%	-7%	-24%	-4
23	Cc1cc(NCCCN2CCOCC2)n2ncc(-c3ccccc3)c2n1	-0.9%	-8%	-45%	-6
24	COCCNC(=S)N/N=C(\C)c1ccc(OC(F)F)cc1	2.0%	-7%	-7%	5
25	NC1=NC(=Nc2ccc(Br)cc2)c2ccccc21	-0.4%	-10%	-11%	-5
26	NC(=O)c1cc2c3ccccc3ccn2c1-c1ccccc1	-3.3%	?	15%	-1
27	CC(C)Oc1nc(-c2ccccc2Cl)nc2ccccc12	-1.2%	-4%	1%	-6
28	N#Cc1ccc(/C=C/C(=O)c2ccco2)cc1	-3.1%	5%	0%	1
29	CN(Cc1ccco1)S(=O)(=O)c1nnc(NC(=O)c2ccccc2)s1	-0.1%	-1%	-34%&6%	/
30	Cc1ccc2c(c1)N(C(=O)NC1CCCCC1)C(C)(C)CC2C (centres undefined)	2.1%	-16%	-12%	2
31	O=C(NCCCC1CCCC1)C1CCC(=O)N(Cc2ccc(Cl)cc2)C1 (centres undefined)	0.4%	11%	11%	/
32	COc1cc(/C=N/NC(=O)c2ccoc2C)cc(OC)c1O	-0.4%	-11%	-54%	0
33	CCOC(=O)N1CCN(C(=O)C(C)(C)Oc2ccc(Cl)cc2)CC1	3.6%	-5%	-11%	6
34	COc1ccc(NC(=O)C2CCN(S(=O)(=O)c3ccc(OC)c(OC)c3)CC2)cc1	0.6%	1%	-2%	-1
35	O=C1N[C@H](Cc2ccccc2)COC(=O)[C@H](Cc2ccc(F)cc2)CC/C=C/C[C@H]1CC(=O)N(CCO)Cc1ccccc1	0.4%	0%	/	/
36	O=C(NCc1ccncc1)C12CC3CC(CC(C3)C1)C2	0.2%	1%	-7%	2
37	CC(C)OC(=O)CSc1nc(N)c(C#N)cc1C#N	-4.1%	3%	-71%	2
38	COc1cccc2c(=O)c(C(=O)NCCc3ccccc3)c[nH]c12	-0.9%	-17%	/	/
39	CCN(CC(=O)NCc1ccc2c(c1)OCO2)S(=O)(=O)c1ccc(F)cc1	-2.2%	3%	-1%	/
40	CC(C)N1CCC(N2CCN(Cc3cnc(-c4ccccc4)s3)CC2CCO)CC1 (centres undefined)	1.8%	29%	-10%	6
41	C/C(=N\NC(=O)COc1c(C)cccc1C)c1cccs1	-0.5%	-13%	-9%	5
42	Cc1cccc(-c2noc(CN(C(=O)c3ccc(Br)o3)C(C)C)n2)c1	-0.6%	0%	-6%	-3
43	CN(C(=O)c1ccc(OC2CCN(C(=O)c3cccnc3)CC2)cc1)C1CCCCC1	-0.7%	-18%	1%	1
44	COc1ccc(-c2csc(N3CCN(C(=O)c4ccco4)CC3)n2)cc1	-1.9%	0%	-13%	-1
45	CCOC(=O)c1sc2nc(C)nc(SCC(=O)N(C)C3CCS(=O)(=O)C3)c2c1C (centres undefined)	0.3%	-7%	-7%	3
46	C=CCOC(=O)C1=C(C)NC(=O)NC1C1CC=CCC1 (centres undefined)	3.8%	-2%	-1%	-19
47	CC(=O)c1cn(CC(=O)Nc2ccc(C)cc2C)c2ccccc12	-5.0%	4%	23%	-4
48	CC1(COS(N)(=O)=O)CCCCC1	4.3%	2%	-6%	/
49	Cc1cc(C)n(C(=O)CCNC(=O)c2ccccc2Cl)n1	-1.5%	15%	-5%	-5
50	COc1cccc(/C=C/C(=O)OCC(=O)NC(=O)NC2CCCC2)c1	-3.4%	8%	/	/
51	N/C(=N\OC(=O)c1ccc(Cl)cc1)c1nonc1N	4.4%	18%	-15%	-5
52	Cc1scc(C(=O)NNC(=S)NC(C)c2ccccc2)c1C (centres undefined)	2.1%	-3%	-6%	3
53	O=C(CCN1CCc2ccccc2C1)Nc1ccccc1F	0.6%	-11%	-17%	0
54	NC(=O)c1ccc(NC(=O)CSc2nnc(C3CC3)n2C2CC2)cc1	0.0%	11%	/	/
55	CCOc1ccccc1CNn1nnnc1N	-1.7%	2%	1%	5
56	O=C(C[C@H]1C/C=C\CC[C@H](Cc2ccc(F)cc2)C(=O)OC[C@H]2CCCN2C1=O)N[C@@H](CO)Cc1ccccc1	0.4%	-1%	/	/

# The list goes on:
no.	SMILES	Rango-impB inh	Rango release inh	miR-21 reporter	GLA inh pH 4.5
57	O=C(N/N=C1/C(=O)c2cccc3cccc1c23)c1ccc(Cl)cc1	-1.7%	10%	-1%	-5
58	COc1ccccc1OCC(=O)n1cc(C(=O)c2cc(Cl)cc(Cl)c2O)cn1	-0.7%	-21%	9%	-1
59	CCNC(=O)/C(C#N)=C/c1c(N2CCN(c3ccc(OC)cc3)CC2)nc2c(C)cccn2c1=O	-1.2%	9%	-1%	/
60	CC(C)C(OC(=O)C1=Cc2ccccc2OC1)C(=O)NC1CCCC1 (centres undefined)	?	6%	-7%	0
61	Cc1ccc(-c2cc(-c3ccccc3)c(C#N)c(Br)n2)cc1	-1.2%	-8%	-8%	1
62	CO/N=C/Cc1c([N+](=O)[O-])c(C)nn1C	0.1%	14%	-5%	-2
63	Cc1ccc(C)c(S(=O)(=O)N2CCCC2CNC(=O)C(=O)NC2CCCCCC2)c1 (centres undefined)	-2.0%	10%	/	/
64	CCSc1nc2ccccc2n1CCC(=O)O	4.0%	1%	-6%	3

# Entries of single compounds from above.
# `CCNC(=O)/C(C#N)=C/c1c(N2CCN(c3ccc(OC)cc3)CC2)nc2c(C)cccn2c1=O` across the screens: Rango-impB inh: -1.2%; Rango release inh: 9%; miR-21 reporter: -1%; GLA inh pH 4.5: /
# `CC(C)C(OC(=O)C1=Cc2ccccc2OC1)C(=O)NC1CCCC1` (centres undefined) across the screens: Rango-impB inh: ?; Rango release inh: 6%; miR-21 reporter: -7%; GLA inh pH 4.5: 0

# The listing picks up, starting 3 compounds before the break.
no.	SMILES	Rango-impB inh	Rango release inh	miR-21 reporter	GLA inh pH 4.5
62	CO/N=C/Cc1c([N+](=O)[O-])c(C)nn1C	0.1%	14%	-5%	-2
63	Cc1ccc(C)c(S(=O)(=O)N2CCCC2CNC(=O)C(=O)NC2CCCCCC2)c1 (centres undefined)	-2.0%	10%	/	/
64	CCSc1nc2ccccc2n1CCC(=O)O	4.0%	1%	-6%	3
65	CN1CCN(C(=S)c2ccc(-c3cc(Cl)ccc3Cl)o2)CC1	-1.5%	-7%	-29%	-19
66	CCC(C)(C)C(=O)Nc1cc([N+](=O)[O-])ccc1F	-0.3%	-23%	-2%	0
67	CCOC(=O)C1CCCN(C(=O)CSc2nnnn2C)C1 (centres undefined)	-0.9%	?	/	/
68	CC(C)c1nc(Cl)c(C#N)c2c1COC(C)(C)C2	-0.3%	0%	-12%	-1
69	Cc1nc(NC(=O)c2cccnc2Cl)sc1C	-2.1%	-12%	/	/
70	Cc1c(NS(=O)(=O)c2cccc(C(=O)NCc3ccncc3)c2)c(=O)n(-c2ccccc2)n1C	7.5%	0%	-1%	10
71	Cc1cc(NC(=O)CSCC(=O)N2CCN(c3ccccc3)CC2)no1	-3.0%	-5%	/	/
72	Cc1cc(N)ccc1-c1cc2ccccc2oc1=O	1.5%	11%	-20%	/

# Some values from the results shown.
# Under GLA inh pH 4.5, entry 65 is entered as -19
# Under miR-21 reporter, entry 66 is entered as -2%
# Under Rango-impB inh, entry 69 is entered as -2.1%
# Under Rango release inh, entry 71 is entered as -5%
# Under Rango-impB inh, entry 67 is entered as -0.9%

# Next part.
no.	SMILES	Rango-impB inh	Rango release inh	miR-21 reporter	GLA inh pH 4.5
73	Cc1cn(C(=O)C(C)N2C(=O)c3ccccc3C2=O)c(C)n1 (centres undefined)	-0.3%	0%	-1%	-2
74	O=C(CNC1CCCCC1)Nc1ccc(Cl)cc1	?	3%	-19%	/
75	CN(C)S(=O)(=O)c1ccc2oc(SCC(=O)NCC(F)(F)F)nc2c1	-2.1%	-9%	-4%	0
76	CCCC(=O)Nc1ccc(-c2ccc(NC(=O)CCC)cc2)cc1	-1.0%	5%	1%	3
77	COc1ccc(N(C)S(=O)(=O)c2cccc(C(=O)OC(C)C(=O)NC3CCCCC3C)c2)cc1 (centres undefined)	-0.3%	-4%	/	/
78	Cc1csc2ncc(C(=O)NCc3ccco3)c(=O)n12	-0.5%	5%	-9%	7
79	COc1ccccc1CCNC(=O)CCn1c(=O)c2cccn2c2ccc(F)cc21	0.2%	24%	-17%&0%	/
80	O=C(COc1ccccc1F)NCCc1ccc2c(c1)OCCO2	-4.2%	-3%	/	/
81	Cc1cc([N+](=O)[O-])ccc1NC(=O)C(C)N1CCN(c2ccccn2)CC1 (centres undefined)	-0.7%	-16%	-1%	0
82	CCc1nc2ccccc2c(C(=O)OCC(=O)N2CC(C)OC(C)C2)c1C (centres undefined)	0.0%	-13%	/	/
83	CCOC(=O)CCN(C(=S)Nc1ccccc1)C1CCCCC1	1.4%	12%	/	/
84	O=c1[nH]ncn1-c1ccccc1	-2.4%	2%	0%	0
85	CN1c2ccc(Cl)cc2C(=O)NC1C1CC=CCC1 (centres undefined)	?	?	7%	8
86	O=C(Nc1nncs1)Oc1ccccc1	-6.7%	2%	-6%	-1
87	Cc1ncc([N+](=O)[O-])n1CCOC(=O)c1ccc(Br)cc1	0.8%	-8%	-2%	6
88	CC(C)(C)c1ccc(C(=O)Nc2ccc(S(N)(=O)=O)cc2)cc1	7.7%	-11%	2%	4

# High-throughput results (PubChem BioAssay)
